KCNQ2 pot – potentiators of rat KCNQ2 potassium channel; Potassium voltage-gated channel subfamily KQT member 2 (Rattus norvegicus), O88943; CHO-K1 KCNQ2, FluxOR thallium flux fluorescence; active compounds read high; B-score at 10 µM; 310,000 tested, 0.54% active;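 active = fluorescence ratio B-score at least 3 SD of library B-scores, with initial fluorescence B-score within 3 SD, cut at about 5.3 in these data; same plate scores as AID 2156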;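 note: B-score of peak minus minimum over baseline fluorescence ratio after K+ and Tl+ stimulus; positive B-score means potentiation of KCNQ2 with more thallium influx and brighter signal; only the inactives scoring about 0 or higher are listed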
Target sequence (O88943 whole entry, looked up): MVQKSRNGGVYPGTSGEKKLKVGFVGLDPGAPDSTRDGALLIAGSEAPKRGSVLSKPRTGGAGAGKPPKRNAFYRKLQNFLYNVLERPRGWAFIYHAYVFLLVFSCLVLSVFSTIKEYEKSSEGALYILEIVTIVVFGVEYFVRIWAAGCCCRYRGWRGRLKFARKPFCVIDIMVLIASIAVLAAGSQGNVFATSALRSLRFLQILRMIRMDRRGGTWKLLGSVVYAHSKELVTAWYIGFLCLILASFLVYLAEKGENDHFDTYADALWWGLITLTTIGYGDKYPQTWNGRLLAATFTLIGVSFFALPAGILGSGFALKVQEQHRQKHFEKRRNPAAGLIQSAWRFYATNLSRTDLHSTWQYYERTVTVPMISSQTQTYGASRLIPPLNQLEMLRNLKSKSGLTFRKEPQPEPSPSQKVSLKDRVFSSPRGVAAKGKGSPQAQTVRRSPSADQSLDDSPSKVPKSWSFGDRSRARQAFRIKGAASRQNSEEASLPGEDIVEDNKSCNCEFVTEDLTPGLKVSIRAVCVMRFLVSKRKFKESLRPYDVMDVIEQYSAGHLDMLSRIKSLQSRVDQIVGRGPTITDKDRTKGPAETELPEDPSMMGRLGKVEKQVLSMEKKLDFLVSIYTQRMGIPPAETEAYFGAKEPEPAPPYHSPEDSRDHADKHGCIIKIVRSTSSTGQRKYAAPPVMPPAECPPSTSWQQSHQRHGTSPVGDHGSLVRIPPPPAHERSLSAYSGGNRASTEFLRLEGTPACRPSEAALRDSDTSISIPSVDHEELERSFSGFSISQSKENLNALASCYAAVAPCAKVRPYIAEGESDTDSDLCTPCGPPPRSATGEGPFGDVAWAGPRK
KCNQ2 pot baseline – also measured in KCNQ2 pot; calls as there; B-score; compound at 10 µM; measured here: initial fluorescence intensity artifact check;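 brightness before thallium and not channel activity; 0 = typical well and far values either way flag optical interference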
Active calls of the source: *. A portion of the library; the hit share may differ from the screen's.

Sample of the layout:
KCNQ2 pot	KCNQ2 pot baseline	Molecule
0.63	0.06	Cn1nnc(NC(=O)c2ccc3ccccc3c2)n1
0.73	2.1	CC(C)(C)NC(=O)C1CCN(C(=O)c2ccc(-c3ccccc3)cc2)CC1
0.01	0	O=C(NCCCc1ccncc1)C1CCC(=O)N(Cc2ccc(Cl)cc2)C1 (stereo not given)

All compounds of this part, from the start:
KCNQ2 pot	KCNQ2 pot baseline	Molecule
0.63	0.06	Cn1nnc(NC(=O)c2ccc3ccccc3c2)n1
0.73	2.1	CC(C)(C)NC(=O)C1CCN(C(=O)c2ccc(-c3ccccc3)cc2)CC1
0.01	0	O=C(NCCCc1ccncc1)C1CCC(=O)N(Cc2ccc(Cl)cc2)C1 (stereo not given)
0.49	0.04	COc1ccc(-c2nc3ccccn3c2NC2CCCCC2)cc1SC1CCCCC1
0.79	-0.21	CC(Sc1nnc(C(F)(F)F)n1C)C(=O)NC(N)=O (stereo not given)
0.13	-0.17	O=C(NN1C(=O)c2ccccc2NC1c1ccccn1)c1ccccc1 (stereo not given)
0.05	-0.52	COc1cccc(C2CC(C(F)(F)F)n3ncc(C(=O)NC(C)(C)C)c3N2)c1 (stereo not given)
0.29	-1.1	CCOc1ccccc1NC(=O)CN1C(=O)COc2ccc(Cl)cc21
0.05	0.27	COc1ccccc1NS(=O)(=O)c1cccc(C(=O)NCC(C)(C)N2CCOCC2)c1
0.01	0.37	COC(=O)C1=CN(C)C=C(C(=O)OC)C1c1ccsc1
1.1	2	COc1cccc(-n2nnnc2SCC(=O)NC2CCCCC2)c1
0.85	1.1	Cc1ccc(C(=O)NC(=S)Nc2ccccc2C(F)(F)F)cc1
1	-0.68	COC(=O)C1C(O)=C(C=NCC(C)N=CC2=C(O)C(C(=O)OC)C(C)(C)CC2=O)C(=O)CC1(C)C (stereo not given)
0.48	-0.59	O=C(Nc1cccc(C(F)(F)F)c1)Nn1cnnc1
0.57	-0.5	COc1ccc(Nc2nc(N)c([N+](=O)[O-])c(N3CCN(C)CC3)n2)cc1
0.47	-0.18	CCOC(=O)N1CCC(N2Cc3cccc(C(=O)NCc4ccccn4)c3C2=O)CC1
0.89	0.3	COc1ccc(C(=O)N/N=C/c2ccc(OC(=O)c3cccs3)cc2)cc1
0.36	-1.3	O=C(OCC(=O)c1c[nH]c2ccccc12)c1cc(Br)ccc1O
0.31	-0.31	CN(C)N1C(N)=C(C#N)C(c2ccc(F)cc2)C2=C1CCCC2=O (stereo not given)
1.1	0.07	COc1cc2[nH]c(=O)n(CCCCCC(=O)NCCc3c[nH]c4ccccc34)c(=O)c2cc1OC
5.8*	-1.4*	Cc1ccc(C2C(/C=C3/SC(=S)NC3=O)=C(c3cccs3)Oc3ccccc32)cc1 (stereo not given)
0.41	0.05	CC1(C)CC(NC(=O)c2ccccn2)CC(C)(C)N1O
1.1	-0.01	N#Cc1c(-c2ccccc2)nc(SCC(=O)N(c2ccccc2)c2ccccc2)[nH]c1=O
0.96	0.6	COc1ccc(CCC(C(O)C(F)(F)F)S(=O)c2ccccc2)cc1 (stereo not given)
0.03	-0.07	COc1ccc(CCNC(=O)/C(=C/c2cccnc2)NC(=O)c2ccccc2)cc1OC
0.71	1.1	COCCn1c(C)cc(C(=O)COC(=O)C23CC4CC(CC(O)(C4)C2)C3)c1C
0.64	-0.84	O=C(NCc1nnnn1-c1ccc(F)c(F)c1)c1ccc2c(c1)OCO2
0.04	-0.7	CN(C)c1nc2c(c(=O)[nH]c(=O)n2C)n1CCCc1ccccc1
2.3	-0.9	CS(=O)(=O)c1ccc(S(=O)(=O)N2CCC(CO)(CCCc3ccccc3)CC2)cc1
1.4	1.9	Cc1[nH]c2ccccc2c1/C=C/C(=O)c1ccncc1
2.3	-0.02	CNC(=O)NNC(=O)c1nc(-c2ccccc2)c(C)o1
0.39	0.84	O=C(N/N=C1\SCC(=O)N1CCc1ccccc1)c1cccs1
0.34	0.64	Nc1cc(=O)[nH]c(SCC(=O)Nc2cc(Cl)cc(Cl)c2)n1
0.3	-0.24	CCC(=O)c1cn(CC(=O)Nc2ccc(C)cc2C)c2ccccc12
0.51	-0.98	CSc1nc2sc3c(c2c(=O)n1C)CCC3
0.04	-1.6	O=[N+]([O-])c1ccc(CS(=O)(=O)c2ccc(Cl)cc2)cc1
1.2	0.36	O=c1[nH]nc(CNc2ccc(OC(F)(F)F)cc2)c2ccccc12
0.92	0.11	CCOC(=O)c1cn2nc(N3CCCCC3)ccc2n1
2	0.01	COc1ccccc1-c1nnc(SCC(=O)Nc2cc(C)on2)o1
0.23	1.6	Cn1c(=O)n(Cc2ccccc2F)c(=O)c2c1nc1n2CCCN1CCc1ccccc1
0.01	1.1	O=C1NC(=O)c2cc(NC(=O)C3CCCCC3)ccc21
0.83	-1.2	Cc1ccccc1OCCCCn1c(CO)nc2ccccc21
1.2	-1.3	Cc1ccccc1N(CC(=O)NCc1ccc2c(c1)OCO2)C(=O)CCC(=O)Nc1ccccn1
0.68	-0.02	Cc1nn(C)cc1/C=N/NC(=O)Cn1nnc(N)n1
0.17	0.38	Brc1ccccc1OCCN1CCCC1
1.8	0.17	COC(=O)c1sccc1NC(=O)Nc1cccc(C(C)=O)c1
1.7	0.6	COc1ccc(C(=O)NCCn2ccc3ccccc32)cc1OC
1.8	-0.05	COc1ccc2c(c1)sc(=N)n2CC(=O)Nc1cc(C)cc(C)c1
1.2	-0.92	COCCn1c(SC(C)C(=O)Nc2ccc3c(c2)OCCO3)nc2ccccc2c1=O (stereo not given)
0.49	-4.1	CCn1c2ccccc2c2cc(NC(=O)N3CCOCC3)ccc21
0.87	-0.37	Cc1ccc2c(c1)N(Cc1ccncc1)C(=O)C(C)O2 (stereo not given)
0.05	0.13	CC(=O)Nc1ccc(NC(=O)C(C)OC(=O)CNS(=O)(=O)/C=C/c2ccc(C)cc2)cc1 (stereo not given)
0.13	1.3	CCCn1nnc(NC(=O)COc2ccc(Cl)cc2)n1
0.36	-1	CCc1nnc(NC(=O)c2ccc(S(=O)(=O)N3CCCC3)cc2)s1
0.03	-0.08	O=C(CCN1C(=O)c2cccc3cccc(c23)C1=O)NCc1cccnc1
1.9	0.27	Cn1c(SCC(=O)NCC2CCCO2)nnc1-c1cccc(NC(=O)c2ccccc2F)c1 (stereo not given)
0.95	0.44	CCOc1ccc(/C=C/C(=O)Nc2ccc3[nH]c(=O)[nH]c3c2)cc1
0.12	-1.2	C=C(C)COc1cc2oc(=O)c(CC(=O)N3C[C@H]4C[C@@H](C3)c3cccc(=O)n3C4)c(C)c2cc1Cl
2.1	-1.2	COc1cc(CNC2CCCCCCC2)cc(Cl)c1OC
0.22	-1.5	O=C(Cc1ccccc1)N/N=C/C=C/c1cccc([N+](=O)[O-])c1

Two consecutive records already listed, for reference:
KCNQ2 pot	KCNQ2 pot baseline	Molecule
2.1	-1.2	COc1cc(CNC2CCCCCCC2)cc(Cl)c1OC
0.22	-1.5	O=C(Cc1ccccc1)N/N=C/C=C/c1cccc([N+](=O)[O-])c1

The listing continues.
KCNQ2 pot	KCNQ2 pot baseline	Molecule
0.04	-1.2	O=C(O)c1ccccc1-c1ccccc1C(=O)NCc1cccnc1
0.4	-2.2	CC(=O)Nc1ccc(NC(=O)CSCCc2ccccn2)cc1
1.6	0.96	CC(=O)N1CCN=C1SCc1cccc(C)c1
0.6	0.67	CCCCc1ccc(/C=C2\C(=O)ON=C2c2ccccc2)s1
0.35	1.1	CCOc1ccc(C(F)(F)F)cc1NC(=O)c1ccc(OC)c([N+](=O)[O-])c1
1.7	-0.01	O=C(COc1ccccc1)NC1CCSC1=O (stereo not given)
1.6	-0.06	Cc1c(Cl)cccc1NC(=O)CCCn1cnc([N+](=O)[O-])n1
0.79	-0.11	CCOC(=O)CC(=O)CSc1[nH]c(=O)cc(C)c1C#N
1.1	-1.2	COCc1nnc(NC(=O)c2ccco2)s1
0.44	0.7	CSCC[C@H](NS(=O)(=O)c1ccc(C)cc1)C(=O)N1CCC(C(=O)N[C@H](C(=O)O)c2ccccc2)CC1
0.77	0.13	Cc1nnc2c(N(C)S(=O)(=O)c3ccccc3)nc3ccccc3n12
0.08	0.81	O=C(CSc1nc2ccccc2n1S(=O)(=O)c1cccc([N+](=O)[O-])c1)NCCc1ccccc1
5.3*	-0.91*	Cc1ccccc1C(=O)NNC(=S)NC(=O)c1ccccc1
1.2	-0.25	Cc1ccc(S(=O)(=O)c2c(O)c3ccc(C(=O)O)cc3[nH]c2=O)cc1
1.7	-2.6	COCCn1c(SCC(=O)Nc2cccc(F)c2)nc2c(c1=O)SCC2
0.41	1.3	C/C(=N\N=C1\NC(=O)C(CC(=O)Nc2ccc(Cl)cc2)S1)c1ccco1 (stereo not given)
0.26	1.4	CC1CCN(S(=O)(=O)c2cccc(S(=O)(=O)N3CCCC3)c2)CC1
0.03	1.1	Cc1cc(/C=N/Nc2ccc([N+](=O)[O-])cn2)c(C)n1-c1ccc(C(=O)O)cc1
0.06	0.05	Cc1ccc(NC(=O)CCc2c(C)nn(-c3ccc(N4CCCCC4)nn3)c2C)cc1
0.45	-0.27	O=C(CSc1nnc(NC(=O)c2ccc3c(c2)OCO3)s1)NCc1ccco1

Single records (already shown):
CCCCc1ccc(/C=C2\C(=O)ON=C2c2ccccc2)s1 is listed as KCNQ2 pot: 0.6; KCNQ2 pot baseline: 0.67
CC(=O)N1CCN=C1SCc1cccc(C)c1 is listed as KCNQ2 pot: 1.6; KCNQ2 pot baseline: 0.96

(list continues)
KCNQ2 pot	KCNQ2 pot baseline	Molecule
0.02	-3.3	CC(CNc1nc2ccccc2n2cnnc12)c1ccccc1 (stereo not given)
0.65	1.3	Cc1cccc(-n2c(-c3csc(C(C)C)c3)n[nH]c2=S)c1
0.44	0.39	O=C(CSc1n[nH]c(=O)n1C1CC1)c1ccc(F)cc1
0.75	-2.5	CCCCn1c(N)c(N(CCOC)C(=O)c2cc(S(=O)(=O)N3CCCCC3)ccc2C)c(=O)[nH]c1=O
1.4	0.57	CCN(CC)c1ncnc2c1[nH]c1ccccc12
0.55	-0.43	COc1ccc(CN2CC(C(=O)NCCc3ccc(C)cc3)CC2=O)cc1 (stereo not given)
0.33	0.23	COc1ccc(/C=C/C(=O)NCc2c(C)nn(C)c2C)cc1COc1ccc(Br)cc1
0.04	-0.42	O=C(O)c1ccccc1COc1ccccc1Cl
1.1	-0.21	CC(=O)N1c2ccc(S(=O)(=O)NCCC(=O)NC3CCC(C)CC3)cc2CC1C (stereo not given)
2.4	0.19	CCCNC(=O)C1CCN(S(=O)(=O)c2c(C)noc2/C=C\c2ccc(OC)cc2)CC1
1.5	-1.8	COc1cc(CNCCC2CCOC(C)(C)C2)ccc1O (stereo not given)
3.9	-1.8	Cc1cccc(/C(N)=N/OC(=O)c2ccc3c(c2)OCO3)c1
0.68	0.61	O=C1CCC(C(=O)Nc2ccccc2N2CCCC2)=NN1
0.86	0.89	CCn1ncc(/C=N\NC(=O)COc2cc(C)cc(C)c2)c1C
1.5	-0.46	c1ccc(CN2OCC3Cn4c(nc5ccccc54)C32)cc1 (stereo not given)
0.62	-0.07	O=C(O)CSc1nnc(CNc2ccc(F)cc2)n1-c1ccccc1
0.89	-0.75	CCN(CC(=O)Nc1ccccc1C(F)(F)F)C(=O)c1cccc(N2C(=O)CCC2=O)c1
0.25	-0.32	Cc1cccc(CCNC(=O)CCCOc2cc(=O)n(C)c3ccccc23)c1
0.62	-1.7	Fc1cc(F)c(C2SCCN2C(=S)Nc2cccc(C(F)(F)F)c2)c(F)c1 (stereo not given)
0.05	0.15	COc1ccc(/C=N/NC(=O)C2c3ccccc3-c3ccccc32)cc1
1.2	0.59	O=C(COC(=O)c1ccccn1)NCc1ccccc1Cl
0.83	-0.67	Cc1c(NC(=S)NC(=O)CCc2ccccc2)c(=O)n(-c2ccccc2)n1C
0.76	4	O=C(CSc1nnc(-c2ccncc2)o1)NCc1ccccc1Cl
0.41	0.52	CC(=O)Nc1ccc(S(=O)(=O)N2C3CCCC2CC(NC(=O)C2CCCCC2)C3)cc1 (stereo not given)
0.16	0.14	Nc1c(Br)cc(Br)c(N2CCCC2=O)c1Br
0.14	0.13	COc1cc(C)nc(-c2csc(C)n2)n1
2.5	0.76	Nc1ccccc1OCP(=O)(c1ccccc1)c1ccccc1
0.8	-2.7	CCn1c2c(c(=N)c3c1CCC3)CCCC2
4.6	0.03	O=C(CCN1C(=O)C2C3C=CC(C4CC34)C2C1=O)Oc1ccccc1 (stereo not given)
0.05	0.06	COc1cc(CC(NC(C)=O)C(=O)NC2CCN(c3c(Cc4ccccc4)c(C)nc4ncnn34)CC2)cc(OC)c1 (stereo not given)
0.02	0.47	CCCn1c(SCC(=O)NCc2ccc(Cl)cc2)n[nH]c1=O
0.13	-0.38	Cc1nc2c(cc1NC(=O)c1ccccc1)nc(C)n2Cc1ccccc1

Given with two lines to a compound: two of the compounds above
Order of values – KCNQ2 pot | KCNQ2 pot baseline
Nc1cc(=O)[nH]c(SCC(=O)Nc2cc(Cl)cc(Cl)c2)n1
    0.34 | 0.64
CCC(=O)c1cn(CC(=O)Nc2ccc(C)cc2C)c2ccccc12
    0.3 | -0.24

Screening results (PubChem)
